# ROCK2 blocker – ROCK2 (human) kinase inhibition; purified ROCK2, Kinase-Glo ATP depletion luminescence; hit rate 0.35% among 60,000; AID 604; inhibition, % at 6 µM; O75116;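 active means inhibition above the screen-wide mean inhibition plus 3 SD, cut at about 18% in these data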;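 further: plate controls were DMSO wells for no effect and Y-27632 control wells after no-enzyme background subtraction for full effect; many of its hits are not listed in these tables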
# Target sequence (O75116 whole entry, looked up): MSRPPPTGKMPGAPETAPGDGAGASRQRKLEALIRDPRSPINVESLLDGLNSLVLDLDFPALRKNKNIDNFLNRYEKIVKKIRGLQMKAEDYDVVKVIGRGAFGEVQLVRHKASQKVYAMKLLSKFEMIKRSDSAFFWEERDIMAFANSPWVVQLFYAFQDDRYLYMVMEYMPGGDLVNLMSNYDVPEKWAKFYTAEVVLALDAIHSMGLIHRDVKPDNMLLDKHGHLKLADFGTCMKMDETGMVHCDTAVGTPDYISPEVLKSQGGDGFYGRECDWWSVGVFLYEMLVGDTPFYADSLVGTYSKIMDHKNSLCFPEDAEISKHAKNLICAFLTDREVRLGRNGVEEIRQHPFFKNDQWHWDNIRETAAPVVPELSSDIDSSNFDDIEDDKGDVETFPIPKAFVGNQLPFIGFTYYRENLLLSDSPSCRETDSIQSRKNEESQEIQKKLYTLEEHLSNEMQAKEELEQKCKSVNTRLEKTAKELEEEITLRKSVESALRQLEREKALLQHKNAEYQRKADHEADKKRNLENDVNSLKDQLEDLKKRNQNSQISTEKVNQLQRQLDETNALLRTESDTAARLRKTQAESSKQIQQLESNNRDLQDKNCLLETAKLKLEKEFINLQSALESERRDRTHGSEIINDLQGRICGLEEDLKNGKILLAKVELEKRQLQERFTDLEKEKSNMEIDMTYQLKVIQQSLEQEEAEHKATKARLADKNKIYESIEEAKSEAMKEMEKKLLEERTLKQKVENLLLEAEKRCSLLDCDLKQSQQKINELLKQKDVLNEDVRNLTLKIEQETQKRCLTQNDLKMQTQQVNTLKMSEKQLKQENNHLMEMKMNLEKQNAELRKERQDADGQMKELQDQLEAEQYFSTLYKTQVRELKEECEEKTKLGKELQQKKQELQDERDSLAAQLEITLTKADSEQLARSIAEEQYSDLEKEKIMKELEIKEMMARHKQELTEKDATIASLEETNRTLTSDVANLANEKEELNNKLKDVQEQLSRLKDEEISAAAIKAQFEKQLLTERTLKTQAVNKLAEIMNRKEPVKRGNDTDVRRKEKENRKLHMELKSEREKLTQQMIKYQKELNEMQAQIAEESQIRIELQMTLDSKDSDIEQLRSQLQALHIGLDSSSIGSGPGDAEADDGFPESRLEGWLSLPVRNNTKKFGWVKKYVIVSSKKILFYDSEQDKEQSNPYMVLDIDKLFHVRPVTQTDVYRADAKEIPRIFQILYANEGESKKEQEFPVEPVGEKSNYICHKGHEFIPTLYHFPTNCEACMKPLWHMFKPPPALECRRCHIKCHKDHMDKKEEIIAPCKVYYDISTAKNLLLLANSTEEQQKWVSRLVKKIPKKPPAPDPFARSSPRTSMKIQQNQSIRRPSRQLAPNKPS
# tolC growth inh – blocks growth of E. coli BW25113 tolC mutant; OD615; growth inhibition, % at 10 µM (by protocol); hit rate 2.2% among 65,000; AID 573;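 active means growth inhibition at or above a cutoff equal to the mean over every tested compound plus 3 SD, cut at about 60% in these data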;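 further: growth measured after 20 h incubation at 37 °C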
#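 Test system: E. coli BW25113 ΔtolC::kan bacteria; incubation: 37 °C, 20 h exposure; medium: LB broth supplemented with 50 µg/mL kanamycin; read-out basis: percent growth inhibition; signal: A615 absorbance measurement; compound: 10 µM final, single dose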
# Abs 340nm – compounds absorbing at 340 nm; compound absorbance at 340 nm, fold over control; fold change at 10 µM; 65,000 tested, under 10 active; AID 708;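 active means at 10 µM dose, initial 340 nm absorbance at least 2 fold that of control wells; inactive means change under 2 fold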;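 further: initial absorbance extrapolated from kinetic A340 decline of NADH oxidation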
# NADH coupling – blocks coupling enzymes of NAD/NADH assays. coupled PK/LDH NADH assays, four targets. IC50, µM (titrated, usually from 10 µM), for the others: at the top dose inhibition. hit rate 0.02% among 65,000;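 active means single-dose screening hits from any of four coupled enzyme assays that gave an IC50 when retested across doses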;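 further: the DPM-DC format reads NADH fluorescence rather than 340 nm absorbance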
# PKA kinase inh – blocks human protein kinase A activity. P17612. PKA Kemptide phosphorylation, Kinase-Glo ATP luminescence. inhibition, % at 6 µM. hit rate 0.1% among 65,000. AID 524;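 active means inhibition above the screen-wide mean inhibition plus 3 SD, cut at about 21% in these data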; further: many of its hits are not listed in these tables
# Autofluor 339 – intrinsic fluorescence of library compounds, ex339/em460 – biochemical, MLSMR library, data from DPM-DC assay, artefact control, profiling panel. compound autofluorescence, ex339/em460 nm, NADH buffer; active compounds read high; 1 = no-compound wells, NADH background. fluorescence fold increase at 10 µM. hit rate 5.5% among 65,000;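 active means at 10 µM, mean starting fluorescence two-fold or more over control wells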;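 further: signal is the first read of a kinetic run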
# HEK293 NFkB inh – inhibitors of the PMA/ionomycin-induced NF-kB reporter in HEK293 cells | HEK-293 NF-kB luciferase reporter, luminescence | inhibition, % at 3 µM | hit rate 0.21% among 62,000;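 active means inhibition above the mean of all tested compounds plus 3 SD, cut at about 40% in these data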;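 further: 0% = stimulated DMSO wells and 100% = 10 µM reference inhibitor 5653914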
#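 System – HEK-293 cells with stable firefly luciferase reporter driven by four HIV NF-kB elements · Doses – one dose, 3 µM · Schedule – 1 h compound pre-incubation, 16 h PMA/ionomycin at 37 °C · Technique – luminescence from luciferase substrate reagent · Measure – percent inhibition normalized per plate to DMSO and reference-inhibitor controls · Replicates – tested once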
# MMP-13 inhibitor – blocks human MMP13 activity; inhibition, % at 4 µM; MMP-13 fTHP FRET cleavage, Mca fluorescence; hit rate 0.07% among 65,000; P45452;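 active means inhibition above the mean of compound-free control plate wells plus 3 SD, cut at about 14% in these data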;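 further: 0% = DMSO wells and 100% = wells with reference MMP-13 inhibitor after basal subtraction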
# * = called active by the depositor; x = no result given; [ ] = remark or other dose. An excerpt, so the mix of outcomes need not match the whole.
1) COc1cccc(C2=NOC(C(=O)N3CCN(C(=O)c4ccco4)CC3)C2)c1 (stereo not given)
2) CCCNC(=O)c1n[nH]c(=O)c2ccccc12
3) Cc1ccc(S(=O)(=O)NCCCCCC(=O)Nc2nccs2)cc1
4) CC1NC(=O)NC1CCCCCC(=O)NCCc1ccccc1 (stereo not given)
5) CCOC(=O)c1cnc(SCC(=O)Nc2ccc(NC(C)=O)c(OC)c2)nc1N
6) COc1ccc(C2=NOC(C(=O)NCc3ccco3)C2)cc1OC (stereo not given)
7) CCCCCOC(=O)C1=C(C)N(C)C(=O)NC1c1cc(Br)c(O)c(OC)c1 (stereo not given)
8) CCOC(=O)c1ccccc1NC(=O)CN(c1ccccc1)S(=O)(=O)N(C)C
9) O=C(Nc1cccc(OC(F)(F)F)c1)c1ccc(Br)o1
10) COc1ccc(C2=NOC(C(=O)N3CCN(c4ccccc4OC)CC3)C2)cc1 (stereo not given)
entry no.,1,2,3,4,5,6,7,8,9,10
ROCK2 blocker,-5,-8,7,5,5,6,2,5,5,4
tolC growth inh,1,-7,17,-2,x,-12,48,50,23,-11
Abs 340nm,1,1,1,1,0.97,0.96,1,1,1,1.1
NADH coupling,4%,11%,7%,2%,9%,9%,3%,6%,4%,5%
PKA kinase inh,-2,-3,7,4,6,6,-1,4,4,7
Autofluor 339,1.1,1.1,1.1,1,1.1,1.1,1,1.1,1.1,1.1
HEK293 NFkB inh,10,3,1,16,4,24,20,3,-6,0
MMP-13 inhibitor,-3,-1,-1,0,-3,1,4,2,5,0

11) CCOc1ncccc1C(=O)Nc1ccc(-c2cn3ccsc3n2)cc1
12) COC(=O)c1ccccc1NC(=O)c1ccc(NS(C)(=O)=O)cc1
13) CCOc1ccccc1C(=O)Nn1c(C2CCC2)nc2ccccc2c1=O
14) COc1ccc(C2=NOC(C(=O)NC3CCCCC3)C2)cc1OC (stereo not given)
15) COc1ccc(CSc2nc(N3CCOCC3)c3c(c2C#N)CC(C)(C)OC3)cc1
16) O=C(c1ccc(Cn2c(=O)[nH]c3ccccc3c2=O)cc1)N1CCN(c2ccccn2)CC1
17) CN(C)S(=O)(=O)N(CC(=O)NCc1ccccc1)c1ccccc1
18) CCOC(=O)N1CCN(C(=O)c2ccc3c(=O)n(CCc4ccccc4)c(=S)[nH]c3c2)CC1
19) CCCCC(=O)Nc1sc2c(c1C(N)=O)CCC2
20) O=C(C1CCC(Cn2c(=S)[nH]c3ccccc3c2=O)CC1)N1CCOCC1 (stereo not given)
entry no.,11,12,13,14,15,16,17,18,19,20
ROCK2 blocker,8,9,2,1,3,1,8,6,0,0
tolC growth inh,-9,12,15,-7,19,7,-2,-17,15,6
Abs 340nm,1.1,1.1,1,0.99,1,1,1.1,1,1,1.1
NADH coupling,11%[fluoresces],10%,1%,4%,6%,3%,11%,5%,1%,5%
PKA kinase inh,10,0,6,-1,7,8,9,5,1,4
Autofluor 339,2.1*,1,0.96,1.1,1.1,1.1,1.1,1.1,1.2,1
HEK293 NFkB inh,11,11,8,12,13,13,10,6,3,13
MMP-13 inhibitor,-11,4,5,4,-1,2,-6,7,-5,3

# Eleven of these compounds in another layout:
No.	Structure	ROCK2 blocker	tolC growth inh	Abs 340nm	NADH coupling	PKA kinase inh	Autofluor 339	HEK293 NFkB inh	MMP-13 inhibitor
10	COc1ccc(C2=NOC(C(=O)N3CCN(c4ccccc4OC)CC3)C2)cc1 (stereo not given)	4	-11	1.1	5%	7	1.1	0	0
11	CCOc1ncccc1C(=O)Nc1ccc(-c2cn3ccsc3n2)cc1	8	-9	1.1	11%[fluoresces]	10	2.1*	11	-11
12	COC(=O)c1ccccc1NC(=O)c1ccc(NS(C)(=O)=O)cc1	9	12	1.1	10%	0	1	11	4
13	CCOc1ccccc1C(=O)Nn1c(C2CCC2)nc2ccccc2c1=O	2	15	1	1%	6	0.96	8	5
14	COc1ccc(C2=NOC(C(=O)NC3CCCCC3)C2)cc1OC (stereo not given)	1	-7	0.99	4%	-1	1.1	12	4
15	COc1ccc(CSc2nc(N3CCOCC3)c3c(c2C#N)CC(C)(C)OC3)cc1	3	19	1	6%	7	1.1	13	-1
16	O=C(c1ccc(Cn2c(=O)[nH]c3ccccc3c2=O)cc1)N1CCN(c2ccccn2)CC1	1	7	1	3%	8	1.1	13	2
17	CN(C)S(=O)(=O)N(CC(=O)NCc1ccccc1)c1ccccc1	8	-2	1.1	11%	9	1.1	10	-6
18	CCOC(=O)N1CCN(C(=O)c2ccc3c(=O)n(CCc4ccccc4)c(=S)[nH]c3c2)CC1	6	-17	1	5%	5	1.1	6	7
19	CCCCC(=O)Nc1sc2c(c1C(N)=O)CCC2	0	15	1	1%	1	1.2	3	-5
20	O=C(C1CCC(Cn2c(=S)[nH]c3ccccc3c2=O)CC1)N1CCOCC1 (stereo not given)	0	6	1.1	5%	4	1	13	3

# Next section
21) COC(=O)c1cc(Br)c(=O)n(CCN2CCCCC2)c1
22) COc1ccc(-c2c3c(=O)n(C)c(=O)n(C)c3c3nnc4ccccc4n23)cc1
23) CCCCOCCCNC(=O)N[C@H](C(=O)OC)C(C)C
24) COc1ccc(C2c3c(-c4cc(Cl)c(C)cc4O)n[nH]c3C(=O)N2Cc2cccnc2)cc1OC (stereo not given)
25) CC(=O)c1cc2c(cc1NC(=O)c1ccc(-n3nc(C)cc3C)cc1)OCO2
26) O=C(Nc1ccon1)c1ccc(S(=O)(=O)N2CCCCCC2)cc1
27) Fc1ccccc1-c1nc(NCCCN2CCOCC2)c2ccccc2n1
28) CCOc1ccc(S(=O)(=O)n2nnc3ccccc32)cc1C
29) Cc1ccc(NC(=O)CCCCCC2NC(=O)NC2C)cc1 (stereo not given)
30) COC(=O)c1oc2ccccc2c1NC(=O)CN1CCCC1
entry no.,21,22,23,24,25,26,27,28,29,30
ROCK2 blocker,-3,-7,4,3,3,2,8,6,3,7
tolC growth inh,3,-4,-16,53,-8,-11,5,-19,-6,-5
Abs 340nm,0.98,1.1,1,0.97,1,1.1,1,0.99,1.1,1
NADH coupling,4%,8%,5%,7%,10%[fluoresces],4%,1%,10%,2%,5%
PKA kinase inh,2,-5,2,6,5,2,1,5,3,11
Autofluor 339,1.1,1.1,1.1,1.1,2.1*,1,1.1,1.1,1.1,1.1
HEK293 NFkB inh,20,10,10,9,-10,14,x,10,12,14
MMP-13 inhibitor,-3,-2,8,1,-44,0,2,-5,-7,1

# Two compounds drawn at random from those above:
17) CN(C)S(=O)(=O)N(CC(=O)NCc1ccccc1)c1ccccc1
21) COC(=O)c1cc(Br)c(=O)n(CCN2CCCCC2)c1
entry no.,17,21
ROCK2 blocker,8,-3
tolC growth inh,-2,3
Abs 340nm,1.1,0.98
NADH coupling,11%,4%
PKA kinase inh,9,2
Autofluor 339,1.1,1.1
HEK293 NFkB inh,10,20
MMP-13 inhibitor,-6,-3

# Continued:
31) CCOC(=O)c1cnc(SCC(=O)Nc2sc(C)c(C)c2C#N)nc1N
32) COc1cccc(C2=NOC(C(=O)Nc3ccc(C(C)=O)cc3)C2)c1 (stereo not given)
33) COCCNC(=O)C1CCC(Cn2c(=S)[nH]c3ccccc3c2=O)CC1 (stereo not given)
34) COc1ccc(-c2c3c(=O)n(C)c(=O)n(C)c3cn2-c2cccc(OC)c2)cc1
35) CN(C)S(=O)(=O)N(CC(=O)Nc1ccccc1F)c1ccccc1
36) CC(=O)c1cc2c(cc1NC(=O)c1cnc(C)cn1)OCO2
37) COc1ccc(C2=NOC(C(=O)N3CCOCC3)C2)cc1OC (stereo not given)
38) COc1cccc(C2=NOC(C(=O)N3CCOCC3)C2)c1 (stereo not given)
39) NC(=O)c1oc2ccccc2c1NC(=O)CN1CCCCC1
40) CCCn1cc(NC(=O)C2CC(c3cccc(Br)c3)=NO2)cn1 (stereo not given)
entry no.,31,32,33,34,35,36,37,38,39,40
ROCK2 blocker,5,15,-2,0,-1,4,-1,3,-8,-3
tolC growth inh,2,5,2,x,-7,5,-16,-2,1,5
Abs 340nm,0.99,1,1,1,1,1.1,0.97,1,0.98,1
NADH coupling,9%,1%,4%,2%[fluoresces],13%,4%,7%,0%,6%,5%
PKA kinase inh,10,12,-1,-2,-3,10,2,8,0,-3
Autofluor 339,1,1.1,1.1,1.9,1.1,1.1,1,1.1,1.1,1.1
HEK293 NFkB inh,8,-15,6,9,10,6,4,-9,19,5
MMP-13 inhibitor,2,1,0,-4,-4,-2,-2,1,-3,8

41) O=C(NCc1ccccn1)c1n[nH]c2ccccc12
42) CCc1cc(=O)oc2cc(C)cc(O)c12
43) O=C(COC(=O)c1n[nH]c2ccccc12)Nc1ccc(S(=O)(=O)N2CCCC2)cc1
44) COc1ccccc1N(CC(=O)NCc1ccccc1)S(C)(=O)=O
45) CCc1nnc(NC(=O)c2ccc(S(=O)(=O)N3CCCCCC3)cc2)s1
46) COc1cccc(OC)c1C(=O)Nn1c(C2CCC2)nc2ccccc2c1=O
47) O=C(CCCCCn1c(=O)[nH]c2ccccc2c1=O)NCCCN1CCN(c2ccccc2F)CC1
48) CCCCCC1NC(=O)NC1CCCCCC(=O)O (stereo not given)
entry no.,41,42,43,44,45,46,47,48
ROCK2 blocker,3,5,6,-2,1,-2,5,1
tolC growth inh,-8,1,-12,-11,9,8,1,3
Abs 340nm,0.99,1.1,1,0.98,1.1,0.99,0.99,0.99
NADH coupling,9%,7%,2%,6%,8%,7%,3%,1%
PKA kinase inh,4,7,6,-5,4,14,10,-4
Autofluor 339,1.1,1.1,1.1,1,1,1.1,1.1,1
HEK293 NFkB inh,10,-4,26,-2,6,4,19,10
MMP-13 inhibitor,-5,0,-5,5,-3,2,0,0

# Assay outcomes as filed in PubChem.
